Autofluor counter: compound fluorescence in toxin protease inhibitor counterscreen; compound autofluorescence counterscreen, microsphere flow cytometry; hits give high values; fluorescence intensity (test concentration not listed); actives 3.1% (n = 360,000);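 active means at least 3 SD above the mean of all compounds, about 16000 in these data; inconclusive means too few beads counted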;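 further: 100 nL of 1 mM stock went into each well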
Sa RN4220 lethal: kills Staphylococcus aureus RN4220; actives 0.33% (n = 330,000); S. aureus RN4220 growth, OD600, 16 h; inhibition, % (test concentration not listed);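 active means z-score of -3 or lower and OD600 up to 0.18 on both plates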;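 further: plate controls were untreated cells for no effect and reference antibiotic for full effect; stock transfer was 100 nL into about 80 µL; one replicate is shown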
PrP 5UTR inh: suppresses PrP 5' UTR mRNA reporter expression; actives 0.35% (n = 340,000); inhibition, % (no concentration beside the values); cell-based PrP 5' UTR mRNA reporter, plate reader;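 active means every replicate at 50% or more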;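 further: 0 = median of the neutral control wells; tested in H4 reporter cells; numbers are from one replicate; inactives centre near -14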
BJeLR viability: BJeLR cell viability loss | BJeLR (HRASV12) viability, CellTiter-Glo ATP luminescence, 48 h; reference of the scale not given here | inhibition, % (no concentration beside the values) | actives 0.17% (n = 300,000);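 active means replicate mean above 50%; inconclusive means above 50% but judged a plate artefact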;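 further: 50 nL library stock added to about 25 µL; numbers are from one replicate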
ugtP null kill: growth inhibition of S. aureus ugtP deletion strain; S. aureus RN4220 ugtP deletion, OD600 growth, 16 h; some inactives read as strong as hits; growth inhibition, % (test concentration not listed); actives 0.54% (n = 330,000); AID 1259309;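 active means z-score under -3 and OD600 up to 0.15 on both plates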;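 further: plate controls were untreated wells for no effect and antibiotic for full effect; wells of about 80 µL received 100 nL stock; the first replicate is given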
Mtb hypoxia rep: reduces hypoxia-regulated biosensor signal in M. tuberculosis; actives 0.1% (n = 300,000); M. tuberculosis hypoxia-regulated fluorescent reporter, fluorescence; fluorescence inhibition, % (test concentration not listed);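 active means 35 to 45% if threefold the growth effect, above 45% if 1.5-fold the growth effect; inactive means the rest, general growth blockers included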;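 further: wells of about 50 µL received 100 nL stock; 0% = vehicle wells and 100% = reference inhibitor wells; whole bacteria with a GFP reporter of the hypoxia response; strong numbers were not always called active; many hits fall short of the cut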
Mtb hypoxia rep growth: also measured in Mtb hypoxia rep; calls as there; growth inhibition, %; measured here: M. tuberculosis growth (absorbance);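 0% = vehicle and 100% = reference antibiotic; read after six days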
Active calls of the source: *; ? = inconclusive; · = no result given.

SMILES | Autofluor counter | Sa RN4220 lethal | PrP 5UTR inh | BJeLR viability | ugtP null kill | Mtb hypoxia rep | Mtb hypoxia rep growth
O=C(CCn1c(=S)[nH]c2cc3c(cc2c1=O)OCO3)NCc1cccc(Cl)c1 | 6285 | 2.8 | -1 | 5 | -3 | 7 | 13
CC(=O)COc1ccc2c(-c3ccccc3)cc(=O)oc2c1 | 7163 | · | -16 | -13 | · | · | ·
COc1ccccc1N1CCN(S(=O)(=O)c2cc3[nH]c(=O)c(=O)[nH]c3cc2C)CC1 | 4964 | 0.3 | -11 | -1 | 5 | -5 | -6
COc1ccc(C2CC(c3ccc(F)cc3)=NN2c2ccccc2)cc1OC (configuration not stated) | 3704 | -4.1 | -31 | 3 | 32 | 13 | 2
COc1cccc(NC(=O)CN(C)C(=O)CCSc2ccc(C)cc2)c1 | 5285 | 2.2 | 16 | · | 1 | 8 | 2
O=C(CP(=O)(c1ccccc1)c1ccccc1)N/N=C/c1cc(Br)cc(Br)c1O | 2557 | · | -2 | 9 | · | · | ·
CC(C)C12CN3CC(C(C)C)(CN(C1)C3(C)C)C2=O | 3501 | 1.7 | -25 | 7 | 0 | 17 | 0
Cc1cccc(C)c1NC(=O)NC1CC2CCC(C1)N2Cc1cccs1 (configuration not stated) | 4499 | 2.0 | -8 | -8 | -7 | -3 | 0
Cc1ccc(NC(=O)C(C)N2C(=O)c3ccccc3C2=O)cc1C (configuration not stated) | 3920 | 3.0 | -17 | -5 | 12 | 8 | -4
CCC(CC)NC(=O)COC(=O)c1ccc(OCc2ccc(C(C)=O)cc2OC)c(OC)c1 | 2417 | 2.7 | -1 | 0 | -3 | 10 | 9
O=C(C[n+]1cccc(CNC(=O)c2ccc(OC(F)F)cc2)c1)Nc1ccccc1Cl | 2618 | -0.9 | -17 | 12 | -3 | -1 | 13
Oc1cc2ccccc2cc1-c1nnc2n1-c1ccccc1SC2 | 3082 | 5.3 | -32 | 6 | -8 | 13 | 6
CC1CCN(Cc2nnnn2CCCC(=O)N(C)C2CCOC2)CC1 (configuration not stated) | 5156 | 4.1 | -16 | -4 | 2 | 8 | 4
CCOc1ccc(CC(=O)N2CCN=C2SC)cc1 | 4206 | 9.1 | -35 | 15 | 4 | 13 | 2
Nc1ccc(C(=O)O)cc1[N+](=O)[O-] | 4115 | 1.0 | 3 | 21 | 3 | 5 | 1
C/C(=N\NC(=O)CCCCCNC(=O)c1ccccc1)c1ccccc1O | 2373 | · | -13 | 4 | · | · | ·
CC(=O)NCCOC(=O)c1nn(Cc2ccccc2)c(=O)c2ccccc12 | 5952 | 1.0 | -18 | -2 | 3 | -6 | 5
CCCCCCCCN1[C@@H](CC(=O)OCC)c2cc(F)ccc2S1(=O)=O | 3758 | · | -7 | 6 | · | · | ·
CC(=O)c1cc(CC=C(C)C)c(O)cc1O | 4763 | 2.5 | -12 | 2 | 2 | · | ·
Cc1cc(-c2cccc([N+](=O)[O-])c2)nc2ccc3ccccc3c12 | 15717 | 2.1 | -40 | 1 | 6 | 6 | 1

As entered above:
Sa RN4220 lethal result of Cc1cccc(C)c1NC(=O)NC1CC2CCC(C1)N2Cc1cccs1 (configuration not stated) : 2.0
BJeLR viability result of O=C(CP(=O)(c1ccccc1)c1ccccc1)N/N=C/c1cc(Br)cc(Br)c1O : 9
PrP 5UTR inh result of O=C(CCn1c(=S)[nH]c2cc3c(cc2c1=O)OCO3)NCc1cccc(Cl)c1 : -1

Retrieved by compound from the entries so far (4):
SMILES | Autofluor counter | Sa RN4220 lethal | PrP 5UTR inh | BJeLR viability | ugtP null kill | Mtb hypoxia rep | Mtb hypoxia rep growth
O=C(CCn1c(=S)[nH]c2cc3c(cc2c1=O)OCO3)NCc1cccc(Cl)c1 | 6285 | 2.8 | -1 | 5 | -3 | 7 | 13
COc1ccccc1N1CCN(S(=O)(=O)c2cc3[nH]c(=O)c(=O)[nH]c3cc2C)CC1 | 4964 | 0.3 | -11 | -1 | 5 | -5 | -6
CC(=O)c1cc(CC=C(C)C)c(O)cc1O | 4763 | 2.5 | -12 | 2 | 2 | · | ·
COc1ccc(C2CC(c3ccc(F)cc3)=NN2c2ccccc2)cc1OC (configuration not stated) | 3704 | -4.1 | -31 | 3 | 32 | 13 | 2

(further entries)
SMILES | Autofluor counter | Sa RN4220 lethal | PrP 5UTR inh | BJeLR viability | ugtP null kill | Mtb hypoxia rep | Mtb hypoxia rep growth
Cc1cc(C)cc(N=Cc2c(O)c3ccccc3oc2=O)c1 | 4593 | 12 | 12 | -10 | 5 | 14 | 4
COc1cc(/C=C2/C(=N)N3N=C(CC(=O)N4CCOCC4)SC3=NC2=O)ccc1OCc1ccccc1 | 5543 | 5.5 | -16 | -2 | 2 | 13 | 13
CCCN1C(=O)/C(=C/c2ccc(C)o2)SC1=Nc1ccc(OCC)cc1 | 3230 | -4.1 | 4 | -20 | -6 | 1 | 3
CCC1(CC)C(=O)C2=C3C(CC(C(=O)OC)=CC(C(=O)OC)C31)n1c(=O)n(C)c(=O)n1C2C (configuration not stated) | · | 6.4 | · | · | 0 | 0 | 9
Cc1cc(Cl)ccc1OCC(=O)NNC(=O)C1CCN(c2ncnc3sc(C)c(C)c23)CC1 | 3365 | -5.8 | -25 | · | -19 | -3 | -11
O=C(Cc1ccccc1)NC(=S)Nc1ccc(N2CCCCC2)cc1 | 2933 | 2.0 | -3 | -8 | 50 | 15 | 6
CCN(CC)S(=O)(=O)c1cccc(C(=O)NN=Cc2cc(OC)c(O)c(OC)c2)c1 | · | 3.5 | · | · | 2 | 11 | 1
CC(=O)Nc1ccc(S(=O)(=O)N2CCSC2c2ccc(Cl)cc2)cc1 (configuration not stated) | 3275 | -4.0 | -3 | 20 | -6 | · | ·
CCCNC(=O)C(CC)NS(=O)(=O)c1ccc(OC)cc1 (configuration not stated) | 2645 | 1.1 | -13 | -1 | 5 | · | ·
Cc1cccn2c(=O)c(C=C(C#N)C(=O)NC3CCS(=O)(=O)C3)c(N3CCC(C)CC3)nc12 (configuration not stated) | · | 6.0 | · | · | -15 | 10 | 1
Cc1cc(=O)nc2c3ccccc3n(CC(=O)NC3CCCCC3)n12 | 4339 | 3.5 | -12 | 3 | 13 | -3 | 6
O=C1NN(c2ccccc2)C(=O)/C1=C\c1cccn1-c1ccc(Cl)c([N+](=O)[O-])c1 | 3594 | -3.6 | -17 | -3 | 1 | 13 | 2
Cc1cc(=O)[nH]c(S/C=C/c2ccccc2)n1 | 20598* | 8.2 | -44 | 4 | 6 | -2 | 7
CCN(CC)CCn1c2c(c(SCC(=O)Nc3cc(C)cc(C)c3)nc1=O)CCC2 | ? | -0.2 | -19 | 3 | 2 | 4 | 1
CCOC(=O)c1ccc(NC(=O)c2ccc(NC(=O)c3ccccc3)cc2)cc1 | 9295 | 5.5 | -4 | -7 | 5 | 18 | 6
O=C(CCCC(=O)OCC(=O)c1cccs1)Nc1ccc(F)cc1 | 2429 | 2.1 | 4 | 3 | 2 | 0 | 7
CC(=NNC(N)=O)C1CC(Cc2ccccc2)C(=O)O1 (configuration not stated) | · | 4.6 | · | · | 0 | 10 | 4
CCc1c(C)nc(SCC(=O)N2C(C)CCCC2C)[nH]c1=O (configuration not stated) | 4683 | 5.4 | -75 | 6 | -3 | 3 | 6
CC(Cc1cnccn1)NC(=O)c1cc(COc2ccc(F)cc2F)on1 (configuration not stated) | 5571 | 2.9 | -19 | -7 | 6 | 3 | 8
O=C(O)CCC(=O)N1CCC(n2nnc3cc(C(F)(F)F)ccc32)CC1 | ? | 1.1 | -6 | -3 | 2 | 15 | 4
Cc1cc(NC(=O)c2cccs2)ncc1NC(=O)C(C)(C)C | 3898 | 4.0 | -38 | 1 | 8 | 1 | 6
CC(C)CCN1CC(C(=O)NCc2ccc(F)cc2)CC1=O (configuration not stated) | 6038 | -0.4 | -19 | -9 | 4 | 2 | 8
Cc1cc(C)nc(N=C(NC(=O)Nc2ccc(Cl)c(Cl)c2)Nc2cccc(Cl)c2)n1 | · | 9.9 | · | · | -2 | 2 | 5
CCOc1ccc(N(CC(=O)Nc2ccccc2Cl)S(C)(=O)=O)cc1 | 3438 | 5.8 | -29 | 6 | 2 | -10 | -5
O=C(C1=C[C@@H](C2CC2)C[C@@H](OCc2ccc(CO)cc2)O1)N1CCN(Cc2ccccc2)CC1 | 3011 | · | 12 | 3 | · | · | ·
COc1ccc(Cc2nnc(NN=Cc3ccc(Br)cc3)[nH]c2=O)cc1OC | · | 1.6 | · | · | 4 | 0 | -1
CC(=O)NCCC(=O)Nc1cc(F)ccc1C | 2500 | 5.6 | -8 | 3 | 9 | · | ·
COc1cc(OC)cc(C(=O)NCc2n[nH]c(=S)n2-c2ccccc2)c1 | 7505 | 1.9 | -17 | -3 | 1 | 2 | 4
CC(=O)OC1COC(N2CCc3ccccc32)C(OC(C)=O)C1OC(C)=O (configuration not stated) | 1984 | 2.9 | -8 | 9 | 3 | 13 | -2
Cc1cc(C(=O)OCC(=O)NC2CCCCC2C)c2ccccc2n1 (configuration not stated) | 3940 | 1.2 | -11 | · | 2 | 6 | 6
COc1ccc(-c2cn3c(n2)CCC3)cc1 | 3961 | 2.7 | -58 | -2 | 7 | 9 | 8
COC(=O)c1cccc(N2CCCC2=O)c1 | 3326 | 3.5 | -5 | -1 | 10 | 3 | 4
O=C(COC(=O)/C=C/c1ccc([N+](=O)[O-])cc1)NCc1cccs1 | 3842 | 5.4 | -24 | · | 5 | 10 | 1
CCNC(=O)N(C)C[C@H]1N[C@@](CC)(C(=O)OC)[C@H]2C(=O)N(C)C(=O)[C@@H]12 | 3557 | 2.9 | -17 | · | 3 | -9 | -5
CC(=O)OCC=C1CCC2C3CCC4=CC(=O)CCC4(C)C3C(O)CC12C (configuration not stated) | 2994 | 1.7 | 3 | · | -3 | 18 | 6
CN(C)S(=O)(=O)c1ccc(N2CCCC2)c(C(=O)N2CCN(S(=O)(=O)c3ccccc3F)CC2)c1 | ? | 1.8 | -16 | -3 | 1 | 9 | 2
CN(CCC#N)C(=O)COC(=O)c1ccccc1OCc1ccccc1Cl | 3961 | 1.2 | -18 | 2 | 8 | 4 | -1
CCOC(=O)N1CCN(C(=O)CN(Cc2ccccc2)S(C)(=O)=O)CC1 | 11333 | -0.1 | -3 | 0 | -1 | 4 | 2
O=c1c(Cc2c(F)cccc2Cl)c(O)ccn1C1CC1 | 4711 | 1.0 | -42 | 1 | -3 | 13 | 4
CCOC(=O)c1noc(C)c1C(=O)Nc1nc(C)cc(C)n1 | 4326 | 1.9 | -21 | 0 | 6 | 2 | 2
Cc1cc(C)cc(NC(=O)CSc2nnc(-c3ccncc3)o2)c1 | 5448 | 1.6 | -18 | -6 | 11 | -4 | 7
Cc1ccc(C2C(C#N)=C(N)OC3=C2C(=O)CC(C)(C)C3)s1 (configuration not stated) | 4690 | 3.8 | -16 | 6 | 5 | 5 | -5
CC(C)(C)c1ccc(S(=O)(=O)NNC(=O)c2cc3ccccc3[nH]2)cc1 | 3810 | 4.1 | -11 | 6 | 13 | 4 | 8
Cc1cc(NCc2ccco2)n2ncnc2n1 | 2467 | 9.4 | -14 | 11 | 5 | -3 | -3
O=C(COC(=O)Cc1c(Cl)cccc1Cl)NCC1CCCO1 (configuration not stated) | 4325 | 8.0 | -16 | -1 | 4 | 19 | 14
CC(=O)N1CCN(c2nc(N)c(C#N)c(CC#N)c2C#N)CC1 | 4787 | 1.9 | -5 | -6 | -11 | -3 | -7
CCc1cc(C(=O)N2CCOCC2)c(NC2=NS(=O)(=O)c3ccccc32)s1 | 2984 | -6.0 | -24 | 6 | 5 | 3 | 7
COc1ccccc1CN1CCNC(=O)C1CC(=O)O (configuration not stated) | 3522 | 4.9 | -13 | -7 | 7 | -1 | 4
CCCC1=C(C(=O)OCC)C(/C=C/c2ccccc2)n2ncnc2N1 (configuration not stated) | 21846* | 6.7 | -7 | -1 | -1 | 4 | 9
O=C(CCn1ccc([N+](=O)[O-])n1)Nc1nccs1 | 4665 | 5.8 | -18 | 0 | 5 | 8 | -6
CCOC(=O)C1=C(CSc2nc(C)cc(C)c2C#N)OC(N)=C(C#N)C1c1ccccc1 (configuration not stated) | 2386 | 5.3 | -31 | 5 | -4 | · | ·
N#Cc1c(N(CCO)CCO)nc(N)c2c(N)nc3c(c12)CC(=O)N3CC1CCCO1 (configuration not stated) | 3281 | 4.3 | -22 | 7 | 14 | 14 | 5
COc1ccc(N2CCN(C(=O)c3ccc(NS(=O)(=O)c4ccccc4)cc3)CC2)cc1 | 2599 | -1.1 | -18 | -8 | 2 | · | ·
